Screens deposited in PubChem by several laboratories.
ugtP null kill – kills S. aureus RN4220 lacking UgtP | S. aureus RN4220 ugtP deletion, OD600 growth, 16 h; some inactives read as strong as hits | growth inhibition, % (concentration not given with the values) | hit rate 0.54% among 330,000 | AID 1259309;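 active = z-score under -3 and OD600 up to 0.15 on both plates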;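 also: plate controls were untreated wells for no effect and antibiotic for full effect; wells of about 80 µL received 100 nL stock; the first replicate is given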
RN4220 kill – kills Staphylococcus aureus RN4220 | S. aureus RN4220 growth, OD600, 16 h | inhibition, % (test concentration not listed) | hit rate 0.33% among 330,000 | AID 1259311;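 active = z-score of -3 or lower and OD600 up to 0.18 on both plates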;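 also: plate controls were untreated cells for no effect and reference antibiotic for full effect; stock transfer was 100 nL into about 80 µL; one replicate is shown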
PrP 5UTR inh – suppresses PrP 5' UTR mRNA reporter expression | cell-based PrP 5' UTR mRNA reporter, plate reader | inhibition, % (no concentration beside the values) | hit rate 0.35% among 340,000 | AID 488862;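 active = every replicate at 50% or more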;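 also: 0 = median of the neutral control wells; tested in H4 reporter cells; numbers are from one replicate; inactives centre near -14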
Mtb hypoxia inh – inhibitors of hypoxia-regulated fluorescent reporter in Mycobacterium tuberculosis | fluorescence inhibition, % (no concentration beside the values) | M. tuberculosis hypoxia-regulated fluorescent reporter, fluorescence | AID 1159583 | hit rate 0.1% among 300,000;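 active = 35 to 45% if threefold the growth effect, above 45% if 1.5-fold the growth effect; inactive = the rest, general growth blockers included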;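 also: wells of about 50 µL received 100 nL stock; 0% = vehicle wells and 100% = reference inhibitor wells; whole bacteria with a GFP reporter of the hypoxia response; strong numbers were not always called active; many hits fall short of the cut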
Autofluor counter – compound fluorescence in toxin protease inhibitor counterscreen; hit rate 3.1% among 360,000; fluorescence intensity (no concentration beside the values); AID 624483; compound autofluorescence counterscreen, microsphere flow cytometry; hits give high values;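 active = at least 3 SD above the mean of all compounds, about 16000 in these data; inconclusive = too few beads counted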;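 also: 100 nL of 1 mM stock went into each well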
BJeLR lethal – kills HRASV12-expressing BJeLR cells; BJeLR (HRASV12) viability, CellTiter-Glo ATP luminescence, 48 h; reference of the scale not given here; inhibition, % (concentration not given with the values); hit rate 0.17% among 300,000;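 active = replicate mean above 50%; inconclusive = above 50% but judged a plate artefact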;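 also: 50 nL library stock added to about 25 µL; numbers are from one replicate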
Mtb hypoxia inh growth – recorded beside Mtb hypoxia inh, whose call it bears; growth inhibition, %; measured here: M. tuberculosis growth (absorbance);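 0% = vehicle and 100% = reference antibiotic; read after six days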
The depositor's hits bear a star; ? = inconclusive; / = no result given. This is a random part of the collection; any-hit rate near 4%.

Screens in order – RN4220 kill | Mtb hypoxia inh growth | Mtb hypoxia inh | ugtP null kill | Autofluor counter | BJeLR lethal | PrP 5UTR inh
1	CCc1nccn1CCC(=O)NC1CC(C)(C)Cc2c1cnn2-c1ccc(OC)cc1 (centres undefined)
  1.2 | 8 | 5 | 6 | 5162 | 11 | -9
2	COc1ccc(-c2noc(CN3CCN(C(=O)c4cccs4)CC3)n2)c(OC)c1OC
  3.5 | 0 | 4 | 9 | 4128 | -3 | -14
3	CCCc1cc(=O)[nH]c(SCC(=O)c2c(N)n(C3CC3)c(=O)[nH]c2=O)n1
  4.4 | 1 | 11 | -1 | 3866 | / | -19
4	Cc1ccc(-c2c(C)sc(=NC(=O)c3ccco3)n2C)cc1
  3.8 | 21 | 20 | -5 | 9459 | 4 | -119
5	O=C(c1cc(COc2ccc(F)c(F)c2)on1)N1CCSCC1
  5.4 | -3 | 15 | 1 | 6798 | -2 | -53
6	COc1cccc(C(=O)NCCS(=O)(=O)NCc2cccnc2)c1
  -3.3 | 7 | -13 | -2 | 6110 | 0 | 1
7	CC(C)c1nn2c(N)c(/C=C3\C=Nc4ccccc43)c(=O)nc2s1
  17 | 4 | -13 | -23 | 6398 | -1 | /
8	O=C(CCN1C(=O)C2C3CCC(C3)C2C1=O)OCC(=O)c1ccc(Cl)cc1 (centres undefined)
  0.3 | -4 | 0 | 5 | 4613 | 1 | -17
9	Cc1cc(OCC(=O)NNC(=S)NC(=O)c2ccc(Br)o2)ccc1Cl
  70 | 5 | 10 | 74 | 5288 | / | -12
10	CC(=O)Nc1ccc(S(=O)(=O)Nc2cccc(-n3c(C)nc4ccccc4c3=O)c2)cc1
  7.1 | 3 | 1 | -2 | 7187 | 2 | -6
11	Cc1cccc(/C(N)=N/OC(=O)c2ccc(Br)o2)c1
  3.7 | 5 | 8 | 3 | 2131 | -3 | -68
12	CCC(=O)N1CCc2cc(Br)cc(S(=O)(=O)NCCCN(CC)Cc3ccccc3)c21
  4.0 | -10 | -2 | 6 | 3996 | 0 | 0
13	COc1ccccc1N1CCN(C2CCCN(C(=O)CCC(=O)N(C)C)C2)CC1 (centres undefined)
  2.4 | 8 | 15 | 7 | 3540 | -1 | -14
14	CC(=O)N(C(C)=O)n1c(/C=C/c2ccc([N+](=O)[O-])cc2)nc2ccccc2c1=O
  14 | 5 | 3 | 0 | 3726 | -4 | -10
15	Cc1cnc([N+](=O)[O-])n1CCOC(=O)NC(=O)c1ccccc1Cl
  6.0 | 14 | 4 | 3 | 6701 | 13 | -7
16	COC(=O)CCCCCCCCCC[N+]1(C)CCCCC1
  4.4 | / | / | 15 | 2064 | 11 | -5
17	CC1(c2ccc3c(c2)OCCO3)NC(=O)N(CC(=O)c2ccc[nH]2)C1=O (centres undefined)
  0.2 | 6 | 3 | -2 | 3851 | / | -4
18	O=S1(=O)CCOCC(CC2CCCCC2)N1Cc1ccccc1Br (centres undefined)
  2.3 | 3 | -2 | 0 | / | / | /
19	Cc1cc(OC(=O)N(C)C)nc(SCc2c(Cl)cccc2Cl)n1
  -3.5 | 9 | -3 | -22 | 4494 | 7 | 3
20	CN=C1S/C(=C\c2cc(C)n(-c3ccccc3F)c2C)C(=O)N1C
  0.2 | 8 | 2 | 1 | 20537* | 2 | 18
21	COC(=O)C1=C(C(=O)OC)C2Nc3ccccc3[C@@]23CC(C(=O)OC)N=C3N1 (some centres undefined)
  5.5 | 0 | 1 | 3 | / | / | /
22	CCOC(=O)[C@@H]1[C@H]2COc3ccccc3[C@H]2N2C(=O)N(c3ccc(Cl)cc3)C(=O)[C@]12C
  / | / | / | / | 4273 | -13 | -25
23	CC(=O)N1CCc2cc(S(=O)(=O)NC(C(=O)NC(C)c3ccccc3)C(C)C)ccc21 (centres undefined)
  -1.3 | 4 | -3 | -3 | 5765 | -1 | -14
24	COc1cc(/C=C(\CC(=O)O)c2nc3ccccc3s2)ccc1OCC(=O)Nc1ccccc1F
  22 | 2 | 11 | 12 | 4080 | / | -34
25	CCOc1ncccc1C(=O)NCCc1c[nH]c2ccccc12
  0.7 | 4 | -1 | 1 | 7231 | 1 | 2
26	O=C(CNC(=O)C(c1ccccc1)c1ccccc1)OCc1ccccc1
  26 | 13 | 3 | 3 | 4493 | -1 | -15
27	O=C1N[C@@H](Cc2ccccc2)C(=O)N2[C@H]1C[C@]1(Br)c3ccccc3N(S(=O)(=O)c3ccc(F)cc3)[C@H]21
  / | / | / | / | 2908 | 11 | -18
28	COc1ccc(C(=O)CCC(=O)N2CCN(c3ccc(C)cc3)C(C)C2)cc1 (centres undefined)
  -1.6 | 10 | 3 | 5 | 5623 | -3 | -14
29	CCOC(=O)N1C(=O)[C@](CC)(c2ccccc2)N1C(=O)OCC
  6.3 | 7 | 16 | 5 | 3607 | -4 | -26
30	O=C(CCC(=O)c1cccs1)NC1CCCCCC1
  1.2 | 39 | 18 | 3 | 4343 | 8 | -7
31	O=C(NCCc1nc2ccccc2[nH]1)c1ccc([N+](=O)[O-])cc1
  -5.5 | -8 | -7 | -6 | 6488 | 3 | -15
32	CN(C)S(=O)(=O)N1CCC(Oc2cccc(C(=O)NCCC3=CCCCC3)c2)CC1
  2.6 | 5 | -2 | 2 | 5630 | 10 | -12
33	CN(C)S(=O)(=O)c1cccc(NC(=O)CSc2nncn2C)c1
  1.1 | 12 | 9 | 5 | 3941 | -3 | -15
34	Clc1cccc(CSc2ccc(-c3cccnc3)nn2)c1
  3.1 | 6 | 7 | 2 | 6063 | 7 | 0
35	CC(C)CCNC(=O)c1ccc2c(c1)N(Cc1ccccc1)C(=O)CS2=O (centres undefined)
  -3.6 | / | / | -8 | 4354 | -9 | 0
36	COC(=O)c1ccccc1NC(=O)N1CSC[C@H]1C(=O)OC
  -0.1 | / | / | 13 | 2743 | 1 | -6
37	Cc1cccc(NC(=O)C2CCN(S(=O)(=O)c3c(C)c(C)cc(C)c3C)CC2)n1
  1.0 | -6 | 11 | -1 | 4755 | 4 | -33
38	Cc1cc(-c2nn(-c3ccccc3F)cc2CN(C)CC(O)CO)c(C)s1 (centres undefined)
  2.1 | 13 | 11 | 12 | 4602 | -3 | -19
39	OCC1(Cc2ccccc2)CCN(Cc2cnc(-c3cccc4ccccc34)nc2)CC1
  3.9 | 2 | 7 | 0 | 4531 | -1 | -35
40	COc1ccccc1CCC(=O)NCCCn1ccc2ccccc21
  2.9 | 8 | 3 | 6 | 4167 | -4 | -26

Entries of single compounds, looked up by structure. Screens in order: RN4220 kill, Mtb hypoxia inh growth, Mtb hypoxia inh, ugtP null kill, Autofluor counter, BJeLR lethal, PrP 5UTR inh
O=C(NCCc1nc2ccccc2[nH]1)c1ccc([N+](=O)[O-])cc1 is listed with -5.5, -8, -7, -6, 6488, 3, -15
CC(=O)Nc1ccc(S(=O)(=O)Nc2cccc(-n3c(C)nc4ccccc4c3=O)c2)cc1 is listed with 7.1, 3, 1, -2, 7187, 2, -6

The list goes on:
Screens in order – RN4220 kill | Mtb hypoxia inh growth | Mtb hypoxia inh | ugtP null kill | Autofluor counter | BJeLR lethal | PrP 5UTR inh
41	Cc1nc2sc(C(c3cccs3)N3CCC4(CC3)OCCO4)c(O)n2n1 (centres undefined)
  4.3 | 4 | 11 | 8 | 9400 | -2 | 2
42	CC(=O)Nc1cc(C(C)C)c(O)c(C(C)C)c1
  0.2 | -6 | 5 | 1 | 2452 | 13 | 5
43	Cc1cc(F)ccc1S(=O)(=O)N1CCCOC1CNC(=O)C(=O)NCCc1ccccc1 (centres undefined)
  1.3 | 10 | 3 | 0 | 5747 | 3 | 8
44	CCOC(=O)c1[nH]ncc1CN1CCCC(C(=O)c2ccc(C(C)(C)C)cc2)C1 (centres undefined)
  -2.9 | 12 | 5 | 14 | 4151 | 0 | -13
45	C/C(=N\NC(=O)COc1ccc(C(C)(C)C)cc1)c1ccc2c(c1)OCCO2
  / | / | / | / | 2181 | -7 | -1
46	CC1(C)CC(=O)c2cc(NC(=O)c3ccccc3)c(=O)oc2C1
  -2.5 | 3 | -3 | 4 | 2150 | 10 | -20
47	CC(=O)c1cccc(NC(=O)C(=O)c2cn(CC(=O)N3CCCCC3)c3ccccc23)c1
  5.9 | 2 | 9 | 0 | 3918 | -2 | -36
48	C/C(=N/NC(=O)CNC(=O)c1cccc(F)c1)c1ccc2c(c1)CCCC2
  / | / | / | / | 5122 | 0 | -31
49	CCOc1ccccc1NC(=O)CCS(=O)(=O)c1cccc2nonc12
  6.4 | 5 | 6 | -6 | 4228 | / | -11
50	C/C(=N\n1cnnc1)c1ccccc1
  / | / | / | / | 4807 | -1 | -24
51	COc1cc(C(=O)NNC(=S)NC(=O)c2ccc3c(c2)OCO3)cc(OC)c1OC
  12 | 8 | -1 | -7 | / | 4 | /
52	CCOc1ncccc1C(=O)NCC1COc2ccccc2O1 (centres undefined)
  1.3 | 7 | 6 | -6 | 9814 | / | -1
53	CCOC(=O)C1=C(COC(=O)C2(C)CC2(Cl)Cl)NC(=O)NC1c1ccc(OC)cc1 (centres undefined)
  2.7 | 8 | 1 | -3 | 4248 | 2 | -34
54	COc1cccc(C(=O)Nc2ccc3c(c2)CCCN3C(=O)c2cccs2)c1OC
  6.7 | -1 | 2 | 13 | 4208 | -2 | -2
55	COc1cc(C(=O)OCC(=O)NC(=O)NC2CCCCC2)cc(Cl)c1OC
  1.3 | 6 | -1 | 4 | ? | -1 | -2
56	Cc1ccc(NNC(=O)C(=O)N2CCCCC2)cc1
  / | / | / | / | 2466 | -5 | -14
57	COc1ccccc1OCC(=O)NNC(=O)c1c(-c2ccccc2Cl)noc1C
  5.3 | -3 | 10 | -2 | 2080 | 0 | -36
58	Cc1cc(C)c(NC(=S)N(CCCN2CCOCC2)Cc2cccnc2)c(C)c1
  -2.1 | -6 | -5 | -10 | 4574 | 16 | -18
59	Cc1nn(Cc2ccccc2)c(C)c1/C=N/NC(=O)c1ccncc1
  / | / | / | / | 3764 | 0 | -8
60	Cc1cc(C)c2sc(N(CCN(C)C)C(=O)c3c(F)cccc3F)nc2c1
  -1.2 | 0 | 9 | 4 | 5109 | 3 | -21
61	CCOC(=O)c1ccc(NC(=O)c2cn(-c3ccccc3)nc2-c2ccncc2)cc1
  25 | 5 | -8 | 5 | 2486 | -3 | -2
62	CN(CC(=O)Nc1cc(S(=O)(=O)N2CCOCC2)ccc1Cl)C1CCS(=O)(=O)C1 (centres undefined)
  5.7 | 0 | 10 | -1 | 5073 | 0 | 3
63	Cc1cccc(NC(=O)CSc2ccc(-c3ccco3)nn2)c1C
  4.6 | 2 | 12 | 13 | 6600 | 3 | -11
64	CCc1c(C)c2cc(Cl)c(O)c(CN(C)C)c2oc1=O
  1.8 | -1 | 10 | 12 | 17210* | 19 | 9
65	COC(=O)C(NC(=O)c1ccco1)(Nc1nc(C)cs1)C(F)(F)F (centres undefined)
  9.1 | / | / | 7 | 4787 | 4 | -22
66	Cc1nn(-c2ccccc2)c(N=Cc2ccc(O)cc2)c1-c1ccccc1
  4.2 | 2 | 8 | -1 | / | / | /
67	CCOC(=O)CNC(=O)N1CCCC(Cc2ccccc2)(C(=O)OCC)C1 (centres undefined)
  / | / | / | / | 3809 | -4 | -11
68	Cc1nc(COc2ccc(C(=O)NCc3ccccc3CN3CCCCC3)cc2)cs1
  -3.2 | 8 | 5 | -5 | 6425 | / | -5
69	CC(C(=O)NC1CCCC1)N(C(=O)CS(=O)CC(=O)Nc1ccc(F)cc1)c1ccc2c(c1)OCCO2 (centres undefined)
  3.5 | 10 | 3 | -1 | 10268 | 4 | -27
70	CC(C)(CN1CCOCC1)NS(=O)(=O)c1ccccc1
  -0.7 | 11 | 10 | 8 | 4055 | -9 | -14
71	CCN(CC)C(=O)C1=C(C)NC(=S)NC1c1cccs1 (centres undefined)
  7.2 | -1 | 6 | 13 | 2192 | -5 | -82
72	CCOC(=O)c1ccccc1NC(=O)COC(=O)c1ccc(C)c(S(=O)(=O)N2CCOCC2)c1
  7.1 | 5 | 15 | 4 | ? | 1 | -1
73	CCOC(=O)c1ccc(Nc2ncccc2[N+](=O)[O-])cc1
  -4.9 | -4 | -11 | 2 | 3213 | -14 | -67
74	Cc1ccc2[nH]c(=O)c(CN(Cc3ccco3)C(=O)c3cccs3)cc2c1
  -12 | 6 | 3 | -4 | / | 5 | /
